Screens from PubChem BioAssay.
TsaE inh = displaces an ADP probe from E. coli YjeE (TsaE); P0AF67; purified YjeE, fluorescence polarisation of a bound ADP probe; Potency, µM; 71,000 tested, 0.05% active; AID 605; active = well fitted falling curve; inconclusive = weaker or top-dose-only fall, or a rising curve; inactive = flat or poorly fitted curve;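 note: top concentration of the series not given in the record; excess ADP was the control for the full effect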
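Purified YjeE (10 uM) with BODIPY Texas Red-labeled ADP probe (2 uM); compounds pin-transferred, 15 min at room temperature. Binding inhibition read as decreased fluorescence polarization; ADP titration as control.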
Bst PK mod = pyruvate kinase (B. stearothermophilus) modulation | partly purified Bacillus stearothermophilus pyruvate kinase, luminescence ATP production; ribose 5-phosphate activator present at AC10 | AID 361 | Potency, µM | 51,000 tested, 1.2% active; in the data active means potency below about 11 µM; inconclusive means mostly about 12 µM to 25 µM; inactive means weaker than that;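 the screen sought inhibitors and activators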;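 note: potency is the fitted concentration of half-maximal effect; scaled between full activation by ribose 5 phosphate and full inhibition by luteolin; about four in five hits inhibit and the cells do not say which; series up to 57 µM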
The depositor's hits bear a star. Some of the compounds tested; the hit share may differ from the screen's.

COC(=O)[C@@H](NC(=O)NC1CCCc2ccccc21)C(C)C (some centres undefined) was read as TsaE inh inactive and Bst PK mod inconclusive.
CC(C)C(NS(=O)(=O)c1ccc2c(c1)oc(=O)n2C)C(=O)N1CCN(c2ccccc2F)CC1 (centres undefined) was read as TsaE inh inactive.
CCOC(=O)N1CCC(NC(=O)C2CCN(S(=O)(=O)N3CCC(C)CC3)CC2)CC1 was read as TsaE inh inactive and Bst PK mod >57.
O=C(Cn1nnc2ccccc21)NC1CCCCC1 was read as TsaE inh inactive and Bst PK mod >57.
For O=C(NCC1CC1)[C@H]1C[C@@H]1[C@H](NP(=O)(c1ccccc1)c1ccccc1)c1ccccc1 the results were TsaE inh inactive.
COc1ccc(CCNC(=O)c2c[nH]c3ccccc3c2=O)cc1OC was read as TsaE inh inactive and Bst PK mod >57.
`O=C(COc1ccc(F)cc1)OCCN1CCOCC1` gave Bst PK mod >25.6.
`Cc1ccc(S(=O)(=O)N2CCC(C(=O)NCCN3CCCCCC3)CC2)cc1` gave TsaE inh inactive and Bst PK mod inconclusive.
For Cc1cn(CC2COC(C)(C)O2)c(=O)[nH]c1=O (centres undefined) the results were TsaE inh inactive and Bst PK mod >57.
`N#CCCN(CCC#N)C(=O)c1ccc(Cl)cc1` gave TsaE inh inactive and Bst PK mod >57.
For COc1cc(NC(=O)CSCc2cnn(-c3ccccc3)c2-n2cccc2)cc(OC)c1 the results were TsaE inh inactive and Bst PK mod >57.
`CCCN1C(=O)c2cc(C(=O)NCc3cccs3)ccc2C1O` (centres undefined) gave TsaE inh inactive.

A section from further up, for reference:
`Cc1ccc(S(=O)(=O)N2CCC(C(=O)NCCN3CCCCCC3)CC2)cc1` gave TsaE inh inactive and Bst PK mod inconclusive.
For Cc1cn(CC2COC(C)(C)O2)c(=O)[nH]c1=O (centres undefined) the results were TsaE inh inactive and Bst PK mod >57.

The main list resumes with the 2 entries that preceded the break.
For COc1cc(NC(=O)CSCc2cnn(-c3ccccc3)c2-n2cccc2)cc(OC)c1 the results were TsaE inh inactive and Bst PK mod >57.
`CCCN1C(=O)c2cc(C(=O)NCc3cccs3)ccc2C1O` (centres undefined) gave TsaE inh inactive.
`O=C(Nc1cccnc1)c1cnn2cccnc12` gave TsaE inh inactive and Bst PK mod >57.
`CCCn1c(-c2ccc(F)cc2)nc2c(NC(C)CN(C)C)nc(C)nc21` (centres undefined) gave TsaE inh inactive.
Screening CC(CCc1ccco1)NC(=O)Cn1ncc2c(=O)oc3ccccc3c21 (centres undefined) returned TsaE inh inactive.
For CC(C)=C1C2CC2C2C(C(=O)O)C12 (centres undefined) the results were TsaE inh inactive and Bst PK mod >57.
Screening CCc1c(C)c2ccc(OCC(=O)OC)cc2oc1=O returned TsaE inh inactive and Bst PK mod >11.4.
For CN1CCc2c(sc3nc(SCC(=O)N4CCOCC4)nc(N)c23)C1 the results were TsaE inh inactive and Bst PK mod >57.
`CN(C)C(=O)CSc1nnc(-c2cccnc2)n1-c1ccccc1` gave TsaE inh inactive.
Screening CC(=O)Nc1nn(C)c2nc3cc(C)ccc3cc12 returned TsaE inh inactive.
`O=C1CCCN1CC(CN1CCOCC1)Sc1nc2ccccc2c(=O)n1-c1ccccc1` (centres undefined) gave TsaE inh inactive and Bst PK mod >57.
N#Cc1ccc(NC(=O)c2cc3cc4c5c(c3oc2=N)CCCN5CCC4)cc1 was read as TsaE inh inactive and Bst PK mod >11.4.
Screening Fc1ccc(N2CCN(c3nc(-c4ccco4)cc(C(F)(F)F)n3)CC2)cc1 returned TsaE inh inactive and Bst PK mod >57.
`CCOC(=O)c1sc(N)c(C#N)c1CSc1nc2ccc(OCC)cc2[nH]1` gave TsaE inh inactive and Bst PK mod >57.
Screening O=C(CSc1nnc(-c2ccccc2Br)o1)Nc1cccc2ccccc12 returned TsaE inh inactive and Bst PK mod inactive.
`CC(=O)NNC(=O)N1Cc2ccccc2Oc2ccc(Cl)cc21` gave TsaE inh inactive.
`O=C(CN1CCCN(S(=O)(=O)c2ccc(F)cc2)CC1)Nc1ccccc1Br` gave TsaE inh inactive and Bst PK mod >57.
Screening O=c1cc(N2CCCCC2)nc2n1CCCS2 returned Bst PK mod >11.4.
CCN(CC)CCn1cnc2c([nH]c3cccc(OC)c32)c1=O was read as TsaE inh inactive and Bst PK mod >57.
Screening Cc1ccc(NS(=O)(=O)c2ccc(CCC(=O)N3CCOCC3)cc2)cc1 returned TsaE inh inactive and Bst PK mod >57.
`Cc1cc(C)n(-c2nncc(-c3ccccc3)n2)n1` gave TsaE inh inactive.
`O=S(=O)(c1cccc2cccnc12)n1cnc2ccccc21` gave TsaE inh inactive and Bst PK mod inconclusive.
`O=C1C2CCCN2C(c2ccc(F)c(F)c2)N1c1cccc(Cl)c1` (centres undefined) gave TsaE inh inactive.
Screening CC(C)NC(=O)N1CCCC2(CCN(C(=O)c3ccncc3)CC2)C1 returned TsaE inh inactive.
`COCCN(CCOC)S(=O)(=O)c1ccc(C(=O)NC2CCN(Cc3ccccc3)CC2)cc1` gave TsaE inh inactive and Bst PK mod >57.
CCOc1ccccc1C(=O)N(Cc1ccco1)C1CCS(=O)(=O)C1 (centres undefined) was read as TsaE inh inactive and Bst PK mod >57.
Screening CCOC(=O)CCCCC(=O)c1[nH]c(=O)[nH]c1Cn1cnc2ccccc21 returned TsaE inh inactive and Bst PK mod >57.
`Cc1nc(SC2CC(=O)N(c3ccccc3)C2=O)nc2c1CCCC2` (centres undefined) gave TsaE inh inactive and Bst PK mod >57.
Screening Cc1nn(CCCC(=O)N2CCc3ccccc3C2)c(=O)c2cc3sccc3n12 returned TsaE inh inactive.
C=C1CC[C@@H](O)C/C1=C/C=C1\CCC[C@]2(C)[C@@H]1CC[C@H]2[C@@H](C)/C=C\[C@@H](C)C(C)C was read as TsaE inh inactive.
`O=C(c1cccc2ccccc12)N1CCC(N2CCN(c3ccccc3)CC2)CC1` gave Bst PK mod >25.6.
Screening Cc1nc2c(c(=O)n1CC1CCCO1)c1nc3ccccc3nc1n2CCC(C)C (centres undefined) returned Bst PK mod >25.6.
`Cn1c(=O)[nH]c(=O)c2c1nc(NCCCO)n2CCCc1ccccc1` gave TsaE inh inactive and Bst PK mod >57.
Screening CC1(C)CC(=O)C(C(c2cccc(O)c2O)C2C(=O)CC(C)(C)CC2=O)C(=O)C1 returned TsaE inh inactive.
Screening CNc1ncnc2ccc(-c3ccccc3C)cc12 returned TsaE inh inactive.
Screening CC(=O)NCCOc1cccc(OCCNC(C)=O)c1 returned TsaE inh inactive and Bst PK mod >57.
Screening Cc1ccc(S(=O)(=O)N2CCN(C(=O)N3CCOCC3)C2C(C)C)cc1 (centres undefined) returned TsaE inh inactive and Bst PK mod >57.
Screening O=C(Nc1ccc(NC(=O)C2CCCN2C(=O)OCc2ccccc2)cc1)c1ccco1 (centres undefined) returned TsaE inh inactive and Bst PK mod >57.

Reprinted at random: 4 records from the list
CCOc1ccccc1C(=O)N(Cc1ccco1)C1CCS(=O)(=O)C1 (centres undefined) was read as TsaE inh inactive and Bst PK mod >57.
`CCCN1C(=O)c2cc(C(=O)NCc3cccs3)ccc2C1O` (centres undefined) gave TsaE inh inactive.
Screening Cc1ccc(S(=O)(=O)N2CCN(C(=O)N3CCOCC3)C2C(C)C)cc1 (centres undefined) returned TsaE inh inactive and Bst PK mod >57.
Screening Cc1ccc(NS(=O)(=O)c2ccc(CCC(=O)N3CCOCC3)cc2)cc1 returned TsaE inh inactive and Bst PK mod >57.

(listing goes on)
For O=C(CSc1ccccc1)Nc1ccccc1N1CCOCC1 the results were TsaE inh inactive and Bst PK mod >57.
`O=C(c1cnccn1)N1CCC2(CC1)CN(c1cccc(-c3ccccc3)c1)C2` gave TsaE inh inactive.
`CC(C)C1CC(=O)NC(SCC(=O)Nc2ccc(Br)cc2)=C1C#N` (centres undefined) gave TsaE inh inactive and Bst PK mod >57.
For O=C(CN(c1ccc(F)cc1)S(=O)(=O)c1ccc2c(c1)OCCO2)Nc1cccnc1 the results were TsaE inh inactive and Bst PK mod >57.
`COc1ccc(-n2c(=O)cnc3cnc(N4CCN(C)CC4)nc32)cc1` gave TsaE inh inactive.
For O=C(COC(=O)Cc1cccs1)Nc1ccccc1 the results were TsaE inh inactive and Bst PK mod >57.
Screening CCC1(c2ccc(F)cc2)NC(=O)N(CC(=O)N2CCOCC2)C1=O (centres undefined) returned TsaE inh inactive and Bst PK mod >57.
For CCCCN1CCC(CCC(=O)c2cc(Cl)c(N)cc2OC)CC1 the results were TsaE inh inactive.
For CN(CCCn1c(=S)[nH]c2ncccc2c1=O)Cc1ccccc1 the results were TsaE inh inactive and Bst PK mod >57.
CS(=O)(=O)N1CCN(C(=O)c2ccccc2)C1 was read as TsaE inh inactive and Bst PK mod >57.
`N=C(N)N1CCc2ccccc2C1` gave TsaE inh inactive.
Screening CCc1nnc(NC(=O)CSc2nc(-c3ccc(OC)cc3)ns2)s1 returned TsaE inh inactive and Bst PK mod >57.
O=C(c1ccc(COc2ccccc2Cl)o1)N1CCN(c2ccccc2)CC1 was read as TsaE inh inactive.
O=C(CCN1CCOCC1)Nc1c(-c2ccccc2)c2cc(Br)ccc2[nH]c1=O was read as TsaE inh inactive.
For Cn1c(SC2=CS(=O)(=O)c3ccccc32)nc2ccccc21 the results were TsaE inh inactive and Bst PK mod >57.
`CCCCCCC(=O)N1CCN(c2cc3c(cc2F)c(=O)c(C(=O)O)cn3CC)CC1` gave Bst PK mod >11.4.
`c1ccc2cc3[nH]c(CN4CCCCC4)nc3cc2c1` gave TsaE inh inactive.
`COc1ccc(CCNc2oc(-c3ccccc3OC)nc2C#N)cc1` gave TsaE inh inactive and Bst PK mod >57.
`O=C(Nc1nccs1)C1CCCN(S(=O)(=O)c2cccc3cccnc23)C1` (centres undefined) gave TsaE inh inactive.
CS(=O)(=O)Nc1cccc(-c2ccc3ncnc(Nc4ccccc4)c3c2)c1 was read as TsaE inh inactive.
`O=C1C(=O)N(CCCn2ccnc2)C(c2cccnc2)/C1=C(/O)c1ccc(Br)cc1` (centres undefined) gave TsaE inh inactive.
Screening CCOC(=O)c1sc2cccc(F)c2c1N returned TsaE inh inactive and Bst PK mod >57.
For OCCN1CCN(CC#CCn2c3ccccc3c3ccccc32)CC1 the results were TsaE inh inactive and Bst PK mod >57.
Screening COc1ccc(C2C(C(=O)Nc3cc(C)on3)c3ccccc3C(=O)N2C)cc1 (centres undefined) returned TsaE inh inactive and Bst PK mod >57.
`C=C(C)CN(CC)CCC(=O)Nc1ccc(OC)cc1OC` gave Bst PK mod >25.6.
CCN(C1CCCCC1)S(=O)(=O)c1ccc(S(=O)(=O)NCc2ccncc2)cc1 was read as TsaE inh inactive and Bst PK mod >57.
CCCCCCCC/C=C\CCCCCCCC(=O)NCc1ccc(O)c(OC)c1 was read as TsaE inh inactive.
For CC1CCN(C(=O)C2CCCN(S(C)(=O)=O)C2)CC1 (centres undefined) the results were TsaE inh inactive and Bst PK mod >57.
Screening CCOC(=O)C(CCSC)NC(=O)CN (centres undefined) returned TsaE inh inactive and Bst PK mod >57.
CCN1CCCCC(=N/O)/C(=N/O)CCCC1 was read as TsaE inh inactive.
COc1ccc(C2N(c3cccc(Cl)c3)C(=O)C3CCCN32)cc1 (centres undefined) was read as TsaE inh inactive.
Cc1cc(C(=O)Nc2sc3c(c2C#N)CCCCC3)cs1 was read as TsaE inh inactive and Bst PK mod inactive.
Screening Cc1ccc(C)c(NS(=O)(=O)c2ccc(OCC(=O)N3CCOCC3)cc2)c1 returned TsaE inh inactive and Bst PK mod >57.
COc1cccc(Cn2nnc(C(=O)NCc3ccc(F)cc3)c2N)c1 was read as TsaE inh inactive.
For CCOC(=O)c1cc2cc(OC)ccc2[nH]1 the results were Bst PK mod inactive.
COc1ccc(C2CC(c3ccc(Cl)cc3Cl)n3nc(N)nc3N2)cc1 (centres undefined) was read as TsaE inh inactive.
For CCCC(=O)Nc1ccc2c(c1)nc1n2CCSC1 the results were TsaE inh inactive.
`Cc1cc(-c2csc(N)n2)c(C)n1CCc1ccccc1` gave TsaE inh inactive and Bst PK mod >57.
`Cc1cc(C)nc(-n2nc(C)cc2NC(=O)c2ccc(Br)o2)n1` gave TsaE inh inactive.
Screening O=C(O)C1CCC(CNc2c(NC3CCCCC3)c(=O)c2=O)CC1 (centres undefined) returned TsaE inh inactive.
Screening CCCc1nc2ccccc2c2nc(N)nn12 returned TsaE inh inactive and Bst PK mod inactive.
Screening COc1cc(Nc2cc(C)nc3nc(C)nn23)cc(OC)c1OC returned TsaE inh inactive.
For Cc1ccc(S(=O)(=O)N2CCN(C(=O)c3c(C)nn(-c4ccccc4)c3Cl)CC2)cc1 the results were TsaE inh inactive and Bst PK mod >57.
Screening C=CCn1c(Cc2ccc(OCC)cc2)nnc1SCC(N)=O returned TsaE inh inactive and Bst PK mod >57.
Cn1c(SCC(=O)c2ccc3c(c2)OCO3)nnc1-c1ccccn1 was read as TsaE inh inactive and Bst PK mod >57.
Screening CC(C)n1nnnc1SCC(=O)Nc1ccccc1N1CCOCC1 returned TsaE inh inactive and Bst PK mod >57.
`Nc1cc(C(F)(F)F)ccc1C(=O)O` gave TsaE inh inactive.
For Cc1ccc2c(c1)NC(=O)C(CC(=O)NCCN(C)C)O2 (centres undefined) the results were TsaE inh inactive.
CC(C)(C)c1ccc(S(=O)(=O)N2CCCCC2C(=O)NCc2ccccn2)cc1 (centres undefined) was read as TsaE inh inactive.
Screening CCc1ccc(NC(=O)CN(c2ccc3c(c2)OCO3)S(=O)(=O)c2c(C)noc2C)cc1 returned TsaE inh inactive.
